Rce1 inhib = inhibitors of yeast Ras-converting enzyme. calls only. 290,000 tested, 0.27% active. yeast membranes, quenched prenylated peptide cleavage fluorescence;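 active = fall in fluorescence gain of 50% or more versus controls, with final raw signal at or below 3038400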;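 note: plate controls were neutral control wells for no effect and wells lacking membranes for full effect; tested at 10 µM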
Target sequence (Q03530 whole entry, looked up): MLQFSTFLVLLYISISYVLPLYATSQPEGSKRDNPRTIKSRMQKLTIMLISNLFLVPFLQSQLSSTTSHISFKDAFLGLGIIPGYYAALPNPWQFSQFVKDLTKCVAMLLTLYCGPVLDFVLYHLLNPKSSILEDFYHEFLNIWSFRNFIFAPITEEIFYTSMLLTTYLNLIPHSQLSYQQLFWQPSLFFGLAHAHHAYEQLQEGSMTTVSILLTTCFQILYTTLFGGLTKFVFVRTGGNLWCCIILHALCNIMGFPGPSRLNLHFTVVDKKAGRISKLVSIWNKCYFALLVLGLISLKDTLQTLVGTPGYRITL
Env fusion inh = inhibitors of HIV Env-mediated cell fusion; HeLa-JRFL Env/CEM21 cell fusion, luciferase; inhibition, % at 12.3 µM; 360,000 tested, 1.1% active;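 active = mean replicate inhibition score of at least 50 and every replicate individually at or above 50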;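 note: 0% = plate neutral controls and 100% = maraviroc near 300 nM; one replicate is shown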
eIF4H FP inh = inhibitors of RNA binding by human eIF4H; eIF4H fluorescence polarization binding assay; inhibition, % at 35 µM; 290,000 tested, 0.94% active; AID 2012;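 active = 50% or more with normal probe brightness, or confirmed in later tests; about a fifth of its hits are not listed in these tables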;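 note: calls also rest on retests at 20 µM and on dose response follow-up; 0% = protein and probe with vehicle and 100% = probe without protein; strong numbers were not always called active; many hits fall short of the cut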
PABP polyA inh = blocks human PABP binding to poly(A) RNA | P11940 | fluorescence polarization | inhibition, % at 35 µM | 290,000 tested, 1% active | AID 2014;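 active = 50% or more with normal probe brightness, or confirmed in later tests; about a fifth of its hits are not listed in these tables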;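 note: calls also rest on retests at 20 µM and on dose response follow-up; controls were probe without protein and protein plus probe with vehicle; some compounds called inactive have numbers as strong as hits; many hits fall short of the cut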
Target sequence (P11940 whole entry, looked up): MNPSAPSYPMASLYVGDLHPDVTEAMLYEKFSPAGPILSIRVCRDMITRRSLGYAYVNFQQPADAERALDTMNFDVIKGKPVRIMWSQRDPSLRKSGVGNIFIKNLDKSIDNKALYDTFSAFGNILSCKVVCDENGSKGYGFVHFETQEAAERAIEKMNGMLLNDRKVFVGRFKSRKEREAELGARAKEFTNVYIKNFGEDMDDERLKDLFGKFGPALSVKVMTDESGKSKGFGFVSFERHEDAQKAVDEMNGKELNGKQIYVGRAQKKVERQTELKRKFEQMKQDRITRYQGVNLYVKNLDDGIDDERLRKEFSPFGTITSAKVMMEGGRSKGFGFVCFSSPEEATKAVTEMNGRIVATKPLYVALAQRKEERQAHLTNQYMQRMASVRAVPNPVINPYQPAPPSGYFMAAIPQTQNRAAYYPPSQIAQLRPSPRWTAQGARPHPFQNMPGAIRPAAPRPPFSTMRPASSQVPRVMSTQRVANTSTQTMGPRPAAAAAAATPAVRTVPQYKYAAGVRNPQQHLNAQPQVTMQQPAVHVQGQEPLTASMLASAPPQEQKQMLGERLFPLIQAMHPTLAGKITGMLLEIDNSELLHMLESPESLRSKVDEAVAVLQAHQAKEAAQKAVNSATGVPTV
CSC inhib = blocks cancer stem cells; cancer stem cell-like cells viability, luminescence; inhibition, % at 7.5 µM; 300,000 tested, 1.1% active; AID 2717;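 active = mean at 75% or more and at least half the replicates too; tested in HMLE shEcad cells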;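 note: 0% = median of negative and 100% = median of positive control wells; the first replicate is given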
MT1-MMP act inh = MT1-MMP (human) activation inhibition. HT1080 RFP-PRO-GFP cells, GFP/RFP ratio fluorescence, overnight; percent of plate control window, DMSO zero. GFP/RFP ratio change, % at 20 µM. 360,000 tested, 0.061% active. AID 651647;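 active = GFP/RFP ratio change of at least 30% with cell ATP level not reduced by more than half and red fluorescence within 50% of control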; note: strong numbers were not always called active
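Compound: 20 µM single dose, 1% DMSO / System: HT1080 RFP-PRO-GFP cells / Controls: DMSO and RFP-L50D-GFP cell wells / Read-out basis: GFP/RFP fluorescence ratio / Schedule: overnight compound exposure at 37 °C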
Yeast UUG start = alters start codon recognition fidelity in yeast; S. cerevisiae UUG-firefly luciferase reporter, luminescence/redox ratio; activity score, % at 18.7 µM; 350,000 tested, 0.13% active;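 active = replicate mean at a twofold rise or more, about +100% in these data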;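 note: firefly luciferase made from a UUG start codon reports start codon fidelity; reporter light over untreated wells divided by growth signal over untreated wells; some hits fall short of that in this replicate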
eIF4H FP inh retest = further read-out of eIF4H FP inh, marked with its call; inhibition, %; compound at 20 µM; confirmation average;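 mean of two retest wells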
PABP polyA inh retest = also measured in PABP polyA inh; calls as there; inhibition, %; compound at 20 µM; confirmation repeats;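 mean of two retest wells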
MT1-MMP act inh RFP = second read-out of MT1-MMP act inh, no call of its own (marks repeat the call); RFP signal change, %; measured here: RFP expression control read;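 0 = vehicle wells; hits needed this value within 50% of zero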
* marks the source's active call; other numbers are inactive results; i = inactive; · = not tested or not shown; + = active, no number. A portion of the library. The share of hits here may be higher or lower than overall.

SMILES	Rce1 inhib	Env fusion inh	eIF4H FP inh	PABP polyA inh	CSC inhib	MT1-MMP act inh	MT1-MMP act inh RFP	Yeast UUG start	others
CCc1cccc(CC)c1NC(=O)CN1CC(C)SC1=NC1CCCCC1 (stereo not drawn)	i	-34	-19	-6	27	-1	-3	1
CS(=O)(=O)c1nc(S(=O)(=O)c2ccc(Cl)cc2)c(NCCN2CCOCC2)s1	i	-9	-12	-5	-18	0	-1	-19
O=C(COC(=O)c1cc(S(=O)(=O)N2CCOCC2)ccc1O)NCc1ccc2c(c1)OCO2	·	82*	·	·	·	-3	5	-9
Cc1[nH]c2c(Cl)cccc2c(=O)c1CN1CCCCCC1	i	-32	-4	-2	7	0	2	11
CN(C)C=NC(=O)c1[nH]c2ccc(Cl)cc2c1-c1ccccc1	i	5	-10	-5	66	-5	-4	-13
Cc1ccccc1NS(=O)(=O)c1cc(C(=O)N2CCc3ccccc3C2)ccc1C	i	1	7	0	10	1	-3	·
COc1ccccc1C1OC2=C(Nc3ccc([N+](=O)[O-])cc3N2)C1=O (stereo not drawn)	i	-5	-3	1	-7	-3	-8	·
O=C(OCC(=O)N1CCCc2ccccc21)c1cccc(S(=O)(=O)N2CCc3ccccc32)c1	i	9	-8	8	2	-2	-2	·
Cc1ccc(S(=O)(=O)NCC(=O)N(CC(=O)NCc2ccc(F)cc2)CC2CCCO2)cc1 (stereo not drawn)	i	3	0	-1	·	1	3	-8
Cc1cc(C)nc(Nc2ccc(N3CCCC3)cc2)n1	i	-1	-4	-9	6	2	0	-25
Clc1ccc(C2=Nn3c(nnc3-c3cccs3)SC2)cc1	i	-79	0	2	-7	3	-3	-2
COc1ccc(CN(CC2CCCO2)C(=O)c2cc3sccc3n2C)c(OC)c1 (stereo not drawn)	i	17	2	-10	7	-2	-3	·
COc1ccc(-c2nc3c4ccccc4ccn3c2Cc2ccccc2C(F)(F)F)cc1OC	·	5	·	·	·	-6	-7	2
COc1cccc(C2/C(=C(/O)c3ccc4c(c3)CC(C)O4)C(=O)C(=O)N2CCCn2ccnc2)c1 (stereo not drawn)	i	-11	-7	7	4	-3	3	-18
Cc1cccc(OCCN2C(=O)C(=O)c3cc(C)ccc32)c1	+	-118	-9	-5	61	7	4	-4
CSCCC(NC(=O)c1ccco1)C(=O)Nc1ccc(C)c(S(=O)(=O)N2CCOCC2)c1 (stereo not drawn)	i	6	·	·	-4	4	5	·
COc1ccccc1CC(=O)Nc1ccon1	i	-22	2	-7	-10	-2	-2	-16
O=C(Cn1cnc2c(NCc3ccccc3)ncnc21)NCc1ccccc1	·	-50	·	·	·	5	-9	-27
CC1S/C(=N/N=C/c2cccs2)NC1=O (stereo not drawn)	i	-35	-5	14	-16	-2	2	-12
CCCc1cc(=O)[nH]c(-n2[nH]c3c(c2=O)CCCC3)n1	i	-101	26	36	5	-80	5	-26
CCN(C(=O)CSc1nnc(NCc2ccccc2)s1)C1CCS(=O)(=O)C1 (stereo not drawn)	i	12	2	-21	-3	3	3	-15
CCOc1ncccc1C(=O)OCC(=O)Nc1cc(S(=O)(=O)N2CCOCC2)ccc1Cl	i	12	0	9	-2	-2	-2	·
CCCC(=O)Nc1sc2c(c1C#N)CC(C)(C)NC2(C)C	i	·	-5	0	-11	-3	3	-20
COc1cccc(C(=O)COc2cccc(NC(=O)c3cccc([N+](=O)[O-])c3)c2)c1	·	·	8	0	-3	-9	-23	2
Cc1nn(C(C)(C)C)c(OC(=O)c2ccc(Br)o2)c1Sc1ccccc1	i	-22	-4	10	16	1	2	-14
CC(Sc1cccc[n+]1[O-])C(=O)Nc1cccc([N+](=O)[O-])c1 (stereo not drawn)	i	13	-10	14	-7	-3	-5	·
N#Cc1cccc(NC(=O)CSc2n[nH]c(=O)[nH]c2=O)c1	i	6	-1	-4	5	-2	2	-14
COc1cc(CCN2C(=O)c3cccc4cccc(c34)C2=O)c(S(=O)(=O)N2CCCCCC2)cc1OC	i	·	-8	32	6	9	-5	·
CC(C)(C)n1nc2c(c1NC(=O)c1cccc(Cl)c1)CS(=O)(=O)C2	i	6	-19	-9	-2	1	5	-19
CCN(CC)S(=O)(=O)c1cccc(C(=O)N/N=C/c2c(C)nn(-c3ccccc3)c2Cl)c1	i	-11	-8	-2	-19	1	1	·
Cc1cc(F)ccc1-c1cc(C(=O)NCc2cccc(C(F)(F)F)c2)[nH]n1	·	13	·	·	·	-1	0	-18
COc1cc(C(=O)NCC(=O)N2CCN(S(=O)(=O)c3ccccc3)CC2)cc(OC)c1OC	i	0	·	·	4	·	·	·
CCC1(C)Cc2c(sc(NC(=O)CCC(=O)O)c2C#N)CO1 (stereo not drawn)	i	·	0	11	-2	3	7	-11
COc1ccc(OCC(=O)OCC(=O)Nc2cc(S(=O)(=O)N3CCOCC3)ccc2Cl)cc1	·	-45	·	·	-23	0	3	5
CCOc1ccc(C(C)=O)cc1CSc1nnc(-c2ccoc2C)n1N	i	-132	0	5	0	10	1	-5
CC(C)=CC(=O)N1CCCC(N2CCN(c3ccc(F)cc3)CC2)C1 (stereo not drawn)	i	4	-4	5	-11	-1	0	-7
CN1CCN(C(=S)Nc2ccc(Oc3ccccc3)cc2)CC1	i	9	-2	22	-12	3	4	-14
CNC(=O)c1cc(C(=O)c2c(Cl)cccc2Cl)c[nH]1	i	2	-9	-2	-3	0	2	·
COCCNc1nc(Oc2ccc(Cl)c(Cl)c2)c2sccc2n1	·	13	·	·	·	1	-12	-6
Cc1ccc(Cn2c(C(C)Nc3nc(-c4ccc(C)cc4)cs3)nc3cc(Cl)c(Cl)cc32)cc1 (stereo not drawn)	i	32	85*	18	15	-2	2	-11	eIF4H FP inh retest=54*;PABP polyA inh retest=21
Cc1cc(=O)[nH]c(SCC(=O)Nc2c(C)n(C)n(-c3ccccc3)c2=O)n1	·	14	·	·	-13	-1	0	-9
CC(OC(=O)C1CCN(c2ccc(C(F)(F)F)cn2)CC1)C(=O)c1ccccc1 (stereo not drawn)	i	20	·	·	18	0	-2	-1
N#C/C(=C\c1ccc(Cl)cc1)c1n[nH]c(Cn2cncn2)n1	i	·	6	3	-23	-3	-3	-10
CCOC(=O)c1ccc(NC(=O)CSc2nc3cccnc3n2C)cc1	i	-13	16	-1	-5	1	-9	18
CCOC(=O)N1CCc2c(sc3c2C(=O)NC(c2ccccc2)N3)C1 (stereo not drawn)	i	·	5	4	25	-2	-5	-4
CC(C)CC(=O)Nc1nnc(SCC(=O)Nc2ccc(F)cc2)s1	i	13	5	6	5	0	-2	·
CCCCCOC(=O)C1[C@H]2C(=O)N(CCCOC)C[C@]23C=C[C@H]1O3 (stereo partly drawn)	i	·	8	3	-12	·	·	·
CC(C)CN(C(=O)c1ccc(=O)n(C)n1)c1nc2ccccc2s1	i	-88	-8	-6	·	-4	-6	-8
COc1ccc(-c2cn(-c3ccc(C)cc3)c(=O)n2CC(=O)Nc2ccc(OC)c(OC)c2)cc1	i	-12	-7	-5	-5	-1	-4	-4
COc1ccc([C@H]2C=C3CN(C(=O)OC(C)(C)C)S(=O)(=O)[C@H]3C[C@H]2OC(=O)c2cccs2)cc1	i	-1	-16	2	-2	·	·	·
The results go on:
SMILES	Rce1 inhib	Env fusion inh	eIF4H FP inh	PABP polyA inh	CSC inhib	MT1-MMP act inh	MT1-MMP act inh RFP	Yeast UUG start	others
O=C(O)c1cccc(CN2C(=O)CSC2=O)c1	i	·	8	8	16	1	1	-12
O=C(Nc1scc(-c2ccccc2)c1C(=O)O)c1ccccc1F	i	-13	7	5	7	-3	-1	-40
O=C(CNC(=O)c1ccco1)N=Nc1c(O)[nH]c2ccc(Br)cc12	i	-7	-9	13	-9	·	·	-4
CCOC(=O)C1=NN(C(=O)Nc2cccc(C(F)(F)F)c2)C2C(=O)N(c3cccc(C(F)(F)F)c3)C(=O)C12 (stereo not drawn)	i	·	-1	-5	-4	5	4	·
Cc1cc(/C=N/n2cnnc2)c(C)n1-c1ccc2ncccc2c1	i	18	·	·	-4	-5	-16	-5
O=C(/C=C/c1ccc(O)cc1)c1ccc(O)cc1O	i	-39	14	9	32	3	-7	-7
CCSc1nnc2n(-c3ccc(OC)cc3)c(=O)c3c4c(sc3n12)CCCC4	i	·	-6	-1	-2	-1	-4	-12
Cc1ccc(N(CC(=O)NCc2ccccc2)C(=O)c2csnn2)cc1	i	-14	-1	2	15	1	-6	3
Cc1ccc(NC(=O)CCC(=O)c2cccs2)nc1	i	·	·	·	-8	0	1	-6
O=C1/C(=C\Nc2ccc(OC(F)(F)F)cc2)CCN1c1ncccn1	i	·	2	22	-5	0	3	-1
CCOc1ccc(C(=O)Nc2cccc(-c3cc4ccccc4oc3=O)c2)cc1[N+](=O)[O-]	i	·	-12	0	0	-1	-13	-23
O=C(CN1CCOCC1)NCCNC(=O)CN1CCOCC1	i	13	-2	1	-3	4	2	-6
CN(C)C(=O)N1CCN(C(=O)N(C)C)CC1	i	-5	-5	-1	-11	1	8	·
COc1cc(OC)cc(C(=O)Nc2ccc3nc4n(c(=O)c3c2)CCCC4)c1	i	-2	-14	-3	3	4	1	1
O=C(c1ccc2c(c1)OCO2)N(CC1CCCO1)C1(C(=O)NC2CCCCC2)CCCCC1 (stereo not drawn)	i	135*	2	-2	-9	-6	-3	-19
C=CCn1c(-c2ccncc2)n[nH]c1=S	i	10	0	1	-10	0	0	·
CCN(CC(=O)Nc1ccccc1OC)C(=O)CSCC(=O)Nc1cccc(C)c1	·	5	·	·	·	3	9	-6
O=C(NCC1CCCO1)c1ccc2c(=O)n(CC3CCCO3)c(SCC(=O)N3CCCC3)nc2c1 (stereo not drawn)	i	11	-13	2	-2	3	7	-6
Nc1nc(N)c2c(n1)CN(Cc1ccc(Cl)cc1)C2	·	26	·	·	·	3	9	-15
C=CCC[C@H](Cc1ccc(F)cc1)C(=O)OC[C@H](Cc1c[nH]c2ccccc12)NC(=O)[C@@H](CC=C)CC(=O)NCCO	·	9	·	·	·	-9	-9	-9
CCOC(=O)N1CCN(C(=O)CN(C2CCCCC2)S(=O)(=O)c2ccc(Cl)cc2)CC1	i	·	-6	1	9	-5	-3	12
CCOC(=O)CSc1ncnc2c1cnn2-c1ccccc1	i	·	8	-7	7	5	4	·
O=C1N=c2ccc(Br)cc2=C1c1sc(=O)[nH]c1O	i	·	7	21	19	·	·	·
CCN(C[C@H]1N[C@@](CC)(C(=O)OC)[C@H]2C(=O)N(Cc3ccccc3)C(=O)[C@@H]12)C(=O)Nc1ccc(OC)cc1	·	87*	·	·	-4	2	6	-6
CC1CCCC(C)N1C(=O)Cn1c(SCC(=O)Nc2ccc3c(c2)OCO3)nc2ccccc21 (stereo not drawn)	i	16	0	-16	3	-3	2	-20
COc1ccc([N+](=O)[O-])cc1NC(=O)COC(=O)c1ccccn1	i	7	18	-12	-9	1	3	-13
CCOc1cc(NC(=O)c2ccco2)c(OCC)cc1NC(=O)CCc1ccccc1OC	i	·	-1	0	5	2	-5	-23
CCc1cccc(CC)c1-n1c(SCc2cc(=O)n3ccsc3n2)nnc1-c1cccnc1	i	11	5	4	9	-5	4	3
Cc1ccc(OCCn2c(C3CC(=O)N(Cc4ccccc4)C3)nc3ccccc32)cc1 (stereo not drawn)	i	-21	-12	1	-13	0	-9	-10

Compound activity deposited in PubChem by several laboratories.
